Compound activity as filed in PubChem.
LYPLA2 inh: LYPLA2 inhibitors, primary screen, counter-screen for PME1 inhibitor project, biochemical, fluorescence polarization, FP-Rh probe ABPP | Acyl-protein thioesterase 2 (Homo sapiens), O95372 | recombinant LYPLA2 | inhibition, % at 5.9 µM | 320,000 compounds, 0.38% hits;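 active = inhibition above the screen-wide mean plus 3 SD, limit set per campaign, cut at about 26% in these data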;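 note: 0% = LYPLA2 with DMSO and 100% = wells lacking LYPLA2 enzyme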
Target sequence (O95372 whole entry, looked up): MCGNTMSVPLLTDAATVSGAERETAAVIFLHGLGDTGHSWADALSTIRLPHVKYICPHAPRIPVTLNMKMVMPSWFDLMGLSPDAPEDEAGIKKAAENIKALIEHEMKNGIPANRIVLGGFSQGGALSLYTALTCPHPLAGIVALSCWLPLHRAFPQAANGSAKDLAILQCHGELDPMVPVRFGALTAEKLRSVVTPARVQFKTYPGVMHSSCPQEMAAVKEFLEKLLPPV
GSTO1 inh: inhibitors of recombinant GSTO1, primary screen, counter-screen for RBBP9 inhibitor project, biochemical, fluorescence polarization | activity-based probe fluorescence polarization | inhibition, % at 5.96 µM | 300,000 compounds, 1.1% hits;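 active = inhibition above the campaign mean inhibition plus 3 SD, cut at about 35% in these data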;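 note: 0% = GSTO1-1 with DMSO and 100% = wells lacking GSTO1-1 enzyme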
Target sequence (P78417 whole entry, looked up): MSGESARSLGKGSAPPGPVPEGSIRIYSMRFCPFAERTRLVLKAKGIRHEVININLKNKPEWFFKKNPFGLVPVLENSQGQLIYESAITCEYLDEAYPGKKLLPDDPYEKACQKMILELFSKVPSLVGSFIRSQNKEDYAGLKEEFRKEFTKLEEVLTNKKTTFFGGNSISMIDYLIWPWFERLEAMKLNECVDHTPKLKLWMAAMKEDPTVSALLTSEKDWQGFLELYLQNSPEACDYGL
LYPLA1 inh: LYPLA1 inhibitors, primary screen, counter-screen for PME1 inhibitor project, biochemical, fluorescence polarization, FP-Rh probe ABPP. recombinant LYPLA1. 320,000 compounds, 0.16% hits. Acyl-protein thioesterase 1 (Homo sapiens), O75608. inhibition, % at 5.9 µM;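 active = inhibition above the mean of all tested compounds plus 3 SD, set per campaign, cut at about 14% in these data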;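 note: inhibitors block serine hydrolase probe labeling of LYPLA1 so polarization falls; 0% = enzyme with DMSO and 100% = wells lacking LYPLA1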
Target sequence (O75608 whole entry, looked up): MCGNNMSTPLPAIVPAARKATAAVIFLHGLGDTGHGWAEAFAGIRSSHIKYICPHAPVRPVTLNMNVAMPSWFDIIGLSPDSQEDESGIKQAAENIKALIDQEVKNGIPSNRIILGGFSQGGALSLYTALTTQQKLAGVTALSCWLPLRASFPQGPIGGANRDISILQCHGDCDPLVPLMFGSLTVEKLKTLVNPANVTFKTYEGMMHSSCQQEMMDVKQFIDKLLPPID
PAD4 FP inh: human PAD4 inhibitors, primary screen, biochemical, fluorescence polarization, 1536-well format. Protein-arginine deiminase type-4 (Homo sapiens), Q9UM07. recombinant PAD4, RCA probe fluorescence polarization. inhibition, % at 6.36 µM. 330,000 compounds, 0.41% hits. AID 485272, 2010;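 active = percent inhibition above a cutoff equal to the mean of all tested compounds plus 3 SD, cut at about 15% in these data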;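 note: 0% = PAD4 with RCA probe and DMSO and 100% = probe without PAD4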
pPAFAH inh: pPAFAH enzyme inhibitors, primary screen, biochemical, fluorescence polarization, human; Platelet-activating factor acetylhydrolase (Homo sapiens), Q13093; 330,000 compounds, 1.5% hits; recombinant pPAFAH, FP-rhodamine probe fluorescence polarization; inhibition, % at 3.39 µM; AID 463082, 2010;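 active = inhibition above the mean inhibition across the screen plus 3 SD, cut at about 25% in these data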;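 note: inhibitors block binding of the rhodamine activity-based probe so polarization drops; 0% = enzyme with DMSO and 100% = wells lacking pPAFAH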
PME-1 primary: PME-1 inhibitors via competitive probe labeling, primary screen, biochemical, fluorescence polarization, FP-Rh probe, HTS; inhibition, % at 5.9 µM; recombinant PME-1; 320,000 compounds, 0.53% hits; AID 2130, 2009; Protein phosphatase methylesterase 1 (Homo sapiens), Q9Y570;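 active = inhibition above the campaign mean of all compounds plus 3 SD, cut at about 26% in these data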;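 note: competitive labeling of PME-1 active site by serine hydrolase directed probe; 0% = PME-1 with DMSO and 100% = wells lacking PME-1 enzyme; inhibitors block probe labeling so polarization falls and inhibition rises; many of its hits are not listed in these tables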
PAFAH2 FP inh: PAFAH2 enzyme inhibitors, primary screen, biochemical, fluorescence polarization, human. inhibition, % at 3.39 µM. Platelet-activating factor acetylhydrolase 2, cytoplasmic (Homo sapiens), Q99487. 340,000 compounds, 0.99% hits. AID 492956, 2010. recombinant PAFAH2, FP-rhodamine activity probe;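 active = inhibition above the mean over all tested compounds plus 3 SD, cut at about 30% in these data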;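 note: inhibitors block probe labeling of enzyme so polarization drops; 0% = enzyme with DMSO and 100% = wells lacking PAFAH2 protein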
PAFAH1B3 inh: PAFAH1B3 enzyme inhibitors, primary screen, biochemical, fluorescence polarization, human; 340,000 compounds, 0.28% hits; recombinant PAFAH1B3, FP-rhodamine probe; Platelet-activating factor acetylhydrolase IB subunit alpha1 (Homo sapiens), Q15102; inhibition, % at 3.39 µM;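 active = inhibition above the screen-wide average of all tested compounds plus 3 SD, cut at about 25% in these data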;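 note: 0% = enzyme with DMSO only and 100% = wells lacking PAFAH1B3 protein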
Target sequence (Q15102 whole entry, looked up): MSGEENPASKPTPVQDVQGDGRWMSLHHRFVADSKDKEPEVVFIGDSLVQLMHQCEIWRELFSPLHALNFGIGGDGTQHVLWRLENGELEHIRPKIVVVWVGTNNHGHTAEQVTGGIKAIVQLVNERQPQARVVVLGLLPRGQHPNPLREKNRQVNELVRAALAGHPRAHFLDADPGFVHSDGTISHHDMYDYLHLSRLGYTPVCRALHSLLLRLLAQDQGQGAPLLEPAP
* = called active by the depositor; . = not tested or not shown. A portion of the library; the hit share may differ from the screen's.

SMILES	LYPLA2 inh	GSTO1 inh	LYPLA1 inh	PAD4 FP inh	pPAFAH inh	PME-1 primary	PAFAH2 FP inh	PAFAH1B3 inh
Cc1ccc(S(=O)(=O)NC(=O)COc2ccc([N+](=O)[O-])cc2)cc1	4	4	3	-1	4	4	-7	8
CC(C)c1ccc(NC(=O)N(CCc2nc3ccccc3[nH]2)C2CCCC2)cc1	-6	2	-7	5	7	0	-4	1
O=C(O)c1cc(-c2ccccc2)n(-c2ccccc2)n1	0	-5	4	-3	-1	1	-6	6
CCCCOc1ccc(C(=O)OCC(=O)N2CCOCC2)cc1	-2	11	1	2	5	1	-5	2
COCC1CCN(C(=O)CCc2nnc(C3(c4ccc(Cl)cc4)CCC3)o2)CC1	-5	6	-1	5	2	6	-6	2
O=c1oc2ccccc2cc1-c1csc(Cc2nc(-c3ccc(Cl)cc3)cs2)n1	-13	1	-6	0	-2	-5	0	2
O=C(O)c1cc([N+](=O)[O-])c(NCCC2=CCCCC2)c([N+](=O)[O-])c1	8	-18	1	2	16	-3	0	-2
CC1C(=O)Nc2ccccc2N1C(=O)c1ccccc1 (centres undefined)	6	1	2	-6	0	-1	10	-3
CC(C(=O)NCC1(c2ccccc2)CCCC1)N1CCOCC1 (centres undefined)	5	5	0	0	5	-10	8	10
CCCOc1ccc(C(CC(=O)O)NC(=O)C23CC4CC(CC(C4)C2)C3)cc1 (centres undefined)	-2	2	-3	1	-2	4	5	2
CC1CCN(S(=O)(=O)c2ccc(NC(=O)CCN3C(=O)C4CC=CCC4C3=O)cc2)CC1 (centres undefined)	-2	.	-5	1	-3	1	-1	-3
Cc1ccc([C@@H]2CC=C(C(=O)O)[C@H](c3ccc(F)cc3)N2S(=O)(=O)c2ccc(C)cc2)cc1	-7	-54	-8	-1	-3	-5	-2	-2
COc1cccc(C(=O)NC(C)c2ccc(Br)cc2)c1 (centres undefined)	3	4	-5	-4	4	4	-1	3
O=C(COC(=O)CCS(=O)(=O)c1ccc(Cl)cc1)NCCc1ccccc1	2	12	1	3	16	-2	-8	2
COCC1CCN(C(=O)CCc2nnc(C3(c4ccc(Cl)cc4)CCC3)o2)C1 (centres undefined)	-2	5	-2	-1	3	4	-1	-2
COC(=O)C(Cc1ccccc1)NC(=O)COc1ccc(C(C)(C)C)cc1 (centres undefined)	-4	2	0	3	8	-2	-3	1
O=C(Nc1nnc(SCc2ccc(Cl)cc2)s1)c1ccco1	-6	-19	-4	-5	1	-2	2	5
C=CCn1c(SCC(=O)Nc2ncc(Cc3ccc(Br)cc3)s2)nnc1-c1ccncc1	5	-3	0	-4	9	-6	3	-3
O=C(CCNS(=O)(=O)c1ccc(Br)cc1)NCCc1ccc(Cl)cc1	6	3	0	1	9	2	11	4
Cc1c(C(=O)O)oc2ccc(S(=O)(=O)NC3CCCCCCC3)cc12	0	11	-4	-2	12	7	1	11
O=C(NC(c1ccccc1)C(Cl)(Cl)Cl)c1ccccc1 (centres undefined)	14	-4	-3	-1	6	-3	-5	4
O=C(NNC(=S)NCc1ccc(Cl)cc1)c1ccc2c(c1)OCO2	8	1	5	-4	6	-4	5	0
O=C(NCCN1CCOCC1)c1cc2c(=O)n3ccccc3nc2n1Cc1ccccc1	1	0	0	-2	3	-1	-4	4
Cc1oc2ccc(OCc3ccc(Cl)cc3)cc2c1C(=O)O	11	8	3	1	0	-6	-3	5
CCCc1cc(=O)[nH]c(SCc2ccc(Cl)cc2)n1	6	-15	3	-5	19	10	7	0
CCCCNC(=O)c1onc(CSc2ccc(Cl)cc2)c1C(=O)O	3	-43	4	1	20	7	16	1
Cc1nn(C(=O)CNS(=O)(=O)c2ccccc2)c(C)c1Sc1ccc(Cl)cc1	8	5	4	0	4	1	5	3
O=C(CSc1nc2[nH]c(=O)cc(O)c2s1)NCCc1ccccc1	.	.	.	.	.	.	11	9
Cc1ccc(Cl)cc1NC(=O)COC(=O)CSc1ccccc1	.	.	.	0	23	.	9	5
COc1ccc(CC(=O)O/N=C(\N)Cc2cccc3ccccc23)cc1	-6	6	-2	-5	1	2	-6	2
Cc1ccc(Cn2nnc3c(=O)[nH]c(C4CCCN(S(=O)(=O)c5ccc(F)cc5)C4)nc32)cc1 (centres undefined)	4	3	0	2	3	15	-9	4
CC1CCN(CC(=O)Nc2ccc3c(c2)OCO3)CC1	.	.	.	.	.	.	0	7
O=S(=O)(Nc1ccc(S(=O)(=O)Nc2ncccn2)cc1)c1ccc(Cl)cc1	1	-2	-2	2	4	-2	1	4
Cc1ccc(SCCCCN2C(=O)NC(C)(C)C2=O)cc1	4	5	0	3	12	-2	5	0
O=C(NCCC(=O)N1CCN(c2cccc(Cl)c2)CC1)c1ccc(Br)cc1	7	.	0	4	-2	1	-5	6
CCC(Cc1ccccc1)NS(=O)(=O)c1ccc2c(c1)NC(=O)CS2 (centres undefined)	2	20	0	2	7	11	2	4
CC1(C(=O)NCc2ccc(Cl)c(Cl)c2)Oc2ccccc2NC1=O (centres undefined)	2	10	-1	-7	2	-2	4	5
COc1ccc2c(CC(=O)NC(Cc3ccc(Cl)cc3)C(=O)O)cc(=O)oc2c1C (centres undefined)	.	.	.	.	.	.	4	8
O=C(Nc1cccc(F)c1)c1cc(S(=O)(=O)NCCC2=CCCCC2)ccc1F	7	2	-12	2	1	-18	-9	-1
O=C(CCS(=O)(=O)c1ccccc1)OCC(=O)N1CCN(S(=O)(=O)c2ccc(Cl)cc2)CC1	4	0	3	3	7	0	0	0

Record cards (already shown). Order of values: LYPLA2 inh, GSTO1 inh, LYPLA1 inh, PAD4 FP inh, pPAFAH inh, PME-1 primary, PAFAH2 FP inh, PAFAH1B3 inh
Listed for CCCCNC(=O)c1onc(CSc2ccc(Cl)cc2)c1C(=O)O = 3, -43, 4, 1, 20, 7, 16, 1
Listed for Cc1ccc(SCCCCN2C(=O)NC(C)(C)C2=O)cc1 = 4, 5, 0, 3, 12, -2, 5, 0

In the list so far, four have bromine.
SMILES	LYPLA2 inh	GSTO1 inh	LYPLA1 inh	PAD4 FP inh	pPAFAH inh	PME-1 primary	PAFAH2 FP inh	PAFAH1B3 inh
COc1cccc(C(=O)NC(C)c2ccc(Br)cc2)c1 (centres undefined)	3	4	-5	-4	4	4	-1	3
C=CCn1c(SCC(=O)Nc2ncc(Cc3ccc(Br)cc3)s2)nnc1-c1ccncc1	5	-3	0	-4	9	-6	3	-3
O=C(CCNS(=O)(=O)c1ccc(Br)cc1)NCCc1ccc(Cl)cc1	6	3	0	1	9	2	11	4
O=C(NCCC(=O)N1CCN(c2cccc(Cl)c2)CC1)c1ccc(Br)cc1	7	.	0	4	-2	1	-5	6

Continuation.
SMILES	LYPLA2 inh	GSTO1 inh	LYPLA1 inh	PAD4 FP inh	pPAFAH inh	PME-1 primary	PAFAH2 FP inh	PAFAH1B3 inh
O=C(CSCc1cccc(Br)c1)NC1CC1	-5	2	-2	2	-5	2	6	3
CC1(C)CC2CC(C)(CN2C(=O)COC(=O)c2cccc([N+](=O)[O-])c2)C1 (centres undefined)	.	.	.	0	-1	.	4	0
CC(C)CNC(=O)CCCc1ccccc1	-4	8	-2	1	6	1	3	14
Cc1ccsc1CNn1cnnc1SCc1ccc(Cl)cc1	2	-1	-6	4	4	9	7	10
CCOC(=O)Cn1c2ccccc2c2nc(C)sc21	4	4	4	-3	0	10	1	4
Cc1cc(C(F)F)n2nc(C(=O)Nc3sc4c(c3C#N)CCC(C)C4)nc2n1 (centres undefined)	4	8	3	2	4	2	-6	3
COCCCn1c(=N)c(C(=O)NCC2CCCO2)cc2c(=O)n3ccccc3nc21 (centres undefined)	-6	-3	-3	2	2	-6	0	0
CSc1nc(N)nc2c1ncn2CC(=O)NCC(c1ccccc1)c1ccccc1	.	.	.	1	1	.	4	12
CCCCOc1ccc(C(=O)N2CCCCCC2)cc1	-1	4	2	0	-3	7	1	6
Cc1ccc(S(=O)(=O)N2[C@@H](c3cccc(Cl)c3)C(C(=O)O)=CC[C@H]2c2ccc3c(c2)OCO3)cc1	-3	-64	-2	0	4	-3	5	9
O=C(O)C(Cc1ccc(Cl)cc1)NS(=O)(=O)c1ccc(Cl)cc1 (centres undefined)	-4	3	1	-5	-1	-3	5	6
O=C(NCc1cccc(C(F)(F)F)c1)c1cccc(S(=O)(=O)NCc2ccccc2)c1	-6	0	-9	-9	10	3	-5	4
COc1ccccc1CNC(=O)CSc1ccc(Br)cc1	-3	2	-5	1	8	0	-2	2
Cc1cc(C)c2c(-n3cccc3)c(C(=O)NNS(=O)(=O)c3ccc(Br)cc3)sc2n1	7	7	-3	4	8	2	13	12
CN(Cc1ccc(Cl)cc1Cl)C(=O)c1cccc(S(=O)(=O)NCc2ccccc2)c1	.	.	.	.	.	.	9	5
C=CCn1c(CSCc2ccc(Cl)cc2)nnc1SCC(=O)NCc1ccccc1	3	6	-2	1	10	4	3	6
O=S(=O)(c1ccc(Br)cc1)N1CCC(c2nc3ccccc3[nH]2)CC1	0	1	3	-2	7	9	-8	-2
Cc1nc2nc(CSc3ccc(Cl)cc3)cc(=O)n2[nH]1	4	10	0	-1	-4	-6	2	0
CC(C)N(C(=O)CN1CCN(S(=O)(=O)c2ccc(Br)s2)CC1)C(C)C	3	.	3	1	3	5	4	9
COc1ccc(C(=O)COC(=O)[C@H](C)NS(=O)(=O)c2ccc(NC(C)=O)cc2)cc1OC	.	.	.	.	.	.	-6	-5

Reprinted from the part before: three entries, then new ones.
SMILES	LYPLA2 inh	GSTO1 inh	LYPLA1 inh	PAD4 FP inh	pPAFAH inh	PME-1 primary	PAFAH2 FP inh	PAFAH1B3 inh
Cc1nc2nc(CSc3ccc(Cl)cc3)cc(=O)n2[nH]1	4	10	0	-1	-4	-6	2	0
CC(C)N(C(=O)CN1CCN(S(=O)(=O)c2ccc(Br)s2)CC1)C(C)C	3	.	3	1	3	5	4	9
COc1ccc(C(=O)COC(=O)[C@H](C)NS(=O)(=O)c2ccc(NC(C)=O)cc2)cc1OC	.	.	.	.	.	.	-6	-5
Cc1ccc([C@H]2C(C(=O)O)=CC[C@@H](c3ccc(C)cc3)N2S(=O)(=O)c2ccc(C)cc2)cc1	.	.	.	-2	9	.	12	7
CC1CCN(S(=O)(=O)c2cccc(C(=O)Nc3ccccn3)c2)CC1	2	-3	7	-6	1	2	6	5
COc1cccc(C(=O)NCCSc2ccc(Br)cc2)c1	0	-7	0	1	2	0	4	-5
Nc1nc(SCc2ccc(Br)cc2)c2ncn(C3OC(CO)C(O)C3O)c2n1 (centres undefined)	.	.	.	.	.	.	5	5
Cc1ccn2c(c1)nc(=O)c1cc(S(=O)(=O)N3CCC(C)CC3)ccc12	0	-2	-1	-1	2	5	8	-1
